Screening data: PubChem, several laboratories
YopH PTP inh – blocks Yersinia enterocolitica YopH tyrosine phosphatase; actives 0.16% (n = 140,000); fluorescence Ex485/Em525; inhibition, %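 (about 10 µM by stock and volumes)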;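 active = inhibition of 50% or more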;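 note: controls were vehicle for no effect and minimum signal wells for full effect; inactives centre near -20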
Arbovirus inh – blocks arbovirus infection. arbovirus infection cell-based antiviral screen. inhibition, % at 10 µM. actives 0.37% (n = 200,000). AID 1251;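 active = inhibition from about 30%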;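 note: bluetongue infection of BSR cells; cell survival read as ATP light after 72 h; 0% = infected wells without compound and 100% = uninfected wells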
RecA splice inh – inhibitors of M. tuberculosis RecA intein splicing. AID 2221. inhibition, %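 (about 9 µM by stock and volumes)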. cell-free RecA intein splicing, fluorescence. P9WHJ3. actives 0.75% (n = 290,000); in the data active = inhibition above about 30%; inconclusive = no clear call, values can overlap the other calls;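 note: 0% = vehicle wells and 100% = reference inhibitor control wells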
Target sequence (P9WHJ3 whole entry, looked up, canonical isoform): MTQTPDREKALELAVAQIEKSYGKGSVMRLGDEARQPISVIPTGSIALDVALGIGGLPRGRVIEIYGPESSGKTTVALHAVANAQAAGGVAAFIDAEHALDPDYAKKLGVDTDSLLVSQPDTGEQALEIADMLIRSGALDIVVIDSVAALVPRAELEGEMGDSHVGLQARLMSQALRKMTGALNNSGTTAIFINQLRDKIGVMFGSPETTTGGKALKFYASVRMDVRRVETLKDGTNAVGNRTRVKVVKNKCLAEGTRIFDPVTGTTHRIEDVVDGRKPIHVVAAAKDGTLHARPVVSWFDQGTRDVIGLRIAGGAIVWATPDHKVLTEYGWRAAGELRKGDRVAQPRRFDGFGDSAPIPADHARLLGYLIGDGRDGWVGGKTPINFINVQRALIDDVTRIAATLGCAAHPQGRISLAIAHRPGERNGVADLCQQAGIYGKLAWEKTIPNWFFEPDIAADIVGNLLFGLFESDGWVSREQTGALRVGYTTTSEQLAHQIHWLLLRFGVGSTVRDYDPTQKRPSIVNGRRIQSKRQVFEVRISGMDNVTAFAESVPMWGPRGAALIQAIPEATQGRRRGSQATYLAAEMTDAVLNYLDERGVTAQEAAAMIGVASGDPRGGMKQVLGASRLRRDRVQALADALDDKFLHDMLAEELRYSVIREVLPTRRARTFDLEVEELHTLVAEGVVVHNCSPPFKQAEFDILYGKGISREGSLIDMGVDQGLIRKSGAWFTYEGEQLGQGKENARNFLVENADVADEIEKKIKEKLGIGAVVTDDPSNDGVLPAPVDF
Mtb betalactam – beta-lactam sensitization of Mtb H37Rv | M. tuberculosis H37Rv growth with meropenem, percent inhibition; hits of this screen are not shown here | inhibition, % at 25 µM | actives 0.27% (n = 330,000);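 active = about 74% or more and at least 40 points above the plate without the antibiotic, then above 30% in a dose series; inconclusive = first-round hits that could not be retested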;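 note: growth measured after seven days incubation then overnight dye step; 0% = bacteria only wells and 100% = bacteria with antibiotic; twin plates without the antibiotic show which effects depend on it; some results filed as inactive read as strong as hits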
Mtb growth – M. tuberculosis H37Rv growth inhibitors, H37Rv strain (AID 1626). M. tuberculosis H37Rv growth inhibition; higher % means a stronger effect. one-dose inhibition, % at 10 µM; IC50 in µM for titrated hits. actives 0.95% (n = 220,000);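 active = confirmed in a dose series; inconclusive = inhibition above 80% but not taken into the dose series; inactive = below 80% or under 30% at every dose of the series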;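 note: bacteria incubated seven days before Alamar blue readout; 0% = bacteria only wells and 100% = bacteria with antibiotic wells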
Arbovirus inh repeat – further read-out of Arbovirus inh, marked with its call; inhibition, %; measured here: 10K subset replicate screen; many hits read low in the repeat;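 first of two repeat runs on a subset; 0% = infected and 100% = uninfected wells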
* marks the source's active call; other numbers are inactive results; u = inconclusive; x = not tested or not shown.

SMILES	YopH PTP inh	Arbovirus inh	RecA splice inh	Mtb betalactam	Mtb growth	others
O=C(N/N=C\c1cccnc1)c1cc(-c2ccccc2)nc2c(Cl)cccc12	x	x	-0.4	-5	x
Cc1nn(-c2nnc(NCc3ccccc3)nn2)c(C)c1Br	-20	-28	3.1	10	5%
Cc1ccc2nc(N3CCN(c4ccccc4)CC3)c(C=O)c(=O)n2c1	x	1	-2.5	1	0%
Cc1cc(S(=O)(=O)Nc2c(C)nn(C)c2C)c(Cl)cc1Cl	x	x	-0.9	7	3%
O=C(NC1CCCC1)c1ccc(Br)o1	-25	0	-5.2	7	-9%
N=c1c2c3c(sc2nc2n1CCCCC2)CCCCC3	-36	1	x	-3	0%	Arbovirus inh repeat=1
c1ccc(CC2CCN(Cc3ccccn3)CC2)cc1	x	10	15	40	-2%
O=C(N/N=C/c1sc(=O)[nH]c1-[n+]1ccc2ccccc2c1)c1ccccc1[O-]	x	x	-1.0	22	x
Nc1nc(Br)c2ccccc2c1-c1ccccc1	x	-2	5.9	9	-10%
N#C/C(=C\c1ccccc1OCC(=O)O)c1nc2ccccc2[nH]1	x	x	-3.8	3	x
COCCCNC(=O)CSc1nc2ccccc2c(=O)n1CCc1ccc(S(N)(=O)=O)cc1	x	x	0.1	0	x
O=C(c1ccc2c(c1)CCN2S(=O)(=O)c1ccccc1)N1CCN(c2ccc(F)cc2)CC1	x	x	6.0	0	x
Cc1cc(NC(=O)c2cc(-c3cccc(OCC(C)C)c3)nc3ccccc23)no1	x	x	-3.0	-2	x
O=C(O)c1ccc(Nc2cccc(F)c2)c([N+](=O)[O-])c1	x	x	-2.4	12	x
c1coc(-c2ccnc3ncnn23)c1	x	2	-1.1	-1	-6%
COc1ccc(S(=O)(=O)N2CCOC2CNC(=O)C(=O)NCCCc2ccccc2)cc1 (stereo unspecified)	x	x	1.2	7	x
COC(=O)c1sccc1NC(=O)c1c(Cl)cnn1C	x	x	-0.3	-7	x
CC(=O)c1sc2nsc(SCCN3CCCC3)c2c1N	x	x	-8.7	-18	x
CCC(=O)Oc1ccc(NC(=O)c2ccco2)cc1	x	-4	4.1	-13	6%
Cc1ccc(C(C)C)c(OCCCN2CC(C)OC(C)C2)c1 (stereo unspecified)	1	7	1.5	-2	-10%	Arbovirus inh repeat=0
CCOc1ccccc1NC(=O)NCc1ccco1	x	x	0.0	-2	-20%
O=C(N/N=C1\CCS(=O)(=O)c2ccc(F)cc21)c1ccc([N+](=O)[O-])cc1	x	x	1.1	0	-2%
CCCCc1cc(=O)oc2c(C)c(OCc3nn[nH]n3)ccc12	x	x	-0.9	-7	-10%
CC(C)c1nc(Cl)c(C#N)c2c1CCC2	x	x	0.0	6	-4%
CCOC(=O)c1ccc(NC(=O)C(=O)NCCc2ccc(OC)cc2)cc1	x	-2	1.8	6	2%
CCc1c(C)c(C#N)c2nc3ccccc3n2c1Cl	-27	-40	29	x	u
CCOc1ccccc1C1CC(=O)Nc2cc(C)c(C)cc21 (stereo unspecified)	x	x	-1.9	8	x
CCOC(=O)C(Sc1ncc(C#N)c(N)n1)C(C)C (stereo unspecified)	-5	0	-5.0	-1	-7%
CCN(CC(=O)Nc1c(F)cccc1F)C(=O)c1cc(S(=O)(=O)N2CCOCC2)ccc1N1CCCC1	x	x	1.9	0	x
CSc1cccc(NC(=O)CN(C)S(=O)(=O)c2cnc[nH]2)c1	x	x	-3.3	-7	x
C=CCc1cccc(C2Nc3ccccc3C(=O)N2O)c1O (stereo unspecified)	-21	2	-4.4	-10	1%
O=C(CSc1ccc(-c2ccc(F)cc2)nn1)NCc1ccco1	-16	1	1.5	7	-2%
Cc1nn(-c2ccccc2)c(C)c1C=O	x	x	x	0	-4%
Cc1ccc(OCC(=O)c2ccc3c(c2)CCCC3)cc1C	-16	7	0.6	-3	4%
Cc1cc(C)cc(N(C(=O)Cn2nnc(-c3ccccc3)n2)C(C(=O)NC2CCCCC2)c2ccccn2)c1 (stereo unspecified)	-8	-3	-0.8	16	x
CSc1nc2c(c(C(F)(F)F)n1)CC(C)CC2 (stereo unspecified)	-4	6	2.8	0	-5%
COc1ccc(C(CNC(=O)c2cc3c(s2)CCCC3)N2CCOCC2)cc1 (stereo unspecified)	x	x	1.4	-13	x
CC1(c2nnc(-c3ccncc3)o2)CC(c2ccc(Cl)cc2)=NO1 (stereo unspecified)	x	x	0.0	98	69%
COc1cc2c(cc1OC)C(C)N(C(=O)Nc1ccccc1)CC2 (stereo unspecified)	x	x	-2.3	-6	x
CCOC(=O)c1c(NC(=O)CN2CCCCC2)sc2c1CCCC2O (stereo unspecified)	-46	-6	4.7	80	34%	Arbovirus inh repeat=-21
O=C(OCc1nnc(-c2ccc(Br)cc2)o1)c1cncc(Br)c1	x	3	-1.3	-6	5%
CCOC(=O)CC1C(=O)NCCN1C(=O)c1sc2ccccc2c1Cl (stereo unspecified)	x	4	1.6	-2	-1%
CC[N+](CC)(CC)CCCCOc1ccc2c(c1)C(=O)c1cc(OCCCC[N+](CC)(CC)CC)ccc1-2	x	x	-1.9	99	u
CCC(c1nnc(SCC(=O)NNC(=O)c2ccccc2)n1Cc1ccccc1)N(C)C (stereo unspecified)	x	x	1.9	0	x
COc1ccc(C(=O)C2CCCN(Cc3ccccn3)C2)c(OC)c1 (stereo unspecified)	x	-4	-1.0	3	-5%
O=S(=O)(c1cccc(Cl)c1)N1CCCC1	24	-2	-1.8	-8	1%
NS(=O)(=O)c1ccc2nc(NC(=O)c3ccncc3)sc2c1	x	1	-2.4	-1	-9%
CC(=O)c1cnc2nc(SCc3ccc(Cl)cc3)nn2c1C	x	x	-2.1	2	x
O=C(Cc1ccccc1)NCCc1cn2ccsc2n1	-38	3	-1.6	2	2%
CCN1CCN(c2cc(C(C)(C)C)nc3c(-c4ccccc4)c(C)nn23)CC1	12	-33	-3.0	100	3.6µM*
O=[N+]([O-])c1cc(C2Nc3cccc4cccc(c34)N2)ccc1Cl	-29	-12	0.6	3	0%
Cc1cc(C)n(S(=O)(=O)c2cccc([N+](=O)[O-])c2)n1	x	x	-2.1	2	x
COc1cccc(CNC(=O)Cn2ccc3cc(S(=O)(=O)N4CCC(C)CC4)ccc32)c1	x	x	-1.6	10	x
COC(=O)Cc1c(C)c2ccc(OCc3nn[nH]n3)cc2oc1=O	8	5	-0.9	-12	-4%
CCC(=O)Nc1cc(C)c(NC(=O)c2ccco2)cn1	-58	2	x	-12	1%	Arbovirus inh repeat=-1
O=c1[nH]cnc2c1ncn2[C@@H]1C[C@@H](O)[C@H](CO)O1	x	x	-4.1	10	x
Cc1c(C)c2ccc(OS(C)(=O)=O)c(C)c2oc1=O	-36	-2	-61	-8	-4%
O=C(Nc1nncs1)C1c2ccccc2Oc2ccccc21	-17	5	-1.8	3	-6%
Cc1ccc2nc(N3CCN(C=O)CC3)nc(-c3ccccc3)c2c1	-6	-11	-1.3	16	19%
COc1ccccc1Nc1ncccc1[N+](=O)[O-]	x	x	1.6	-6	x

The list goes on, overlapping the part above by two compounds.
SMILES	YopH PTP inh	Arbovirus inh	RecA splice inh	Mtb betalactam	Mtb growth	others
Cc1ccc2nc(N3CCN(C=O)CC3)nc(-c3ccccc3)c2c1	-6	-11	-1.3	16	19%
COc1ccccc1Nc1ncccc1[N+](=O)[O-]	x	x	1.6	-6	x
O=c1cc(N2CCc3ccccc32)[nH]c(=O)n1Cc1ccc(F)cc1	-18	2	-1.4	5	6%
Cc1cc(-c2ccc(C(C)C)c(S(=O)(=O)Nc3cc(C)on3)c2)on1	x	x	-5.4	1	x
CCOC(=O)C1=C(C)NC(C)=C(C(=O)OCC)C1c1ccco1	x	x	0.4	-10	4%
CC(CNC(=O)c1ccc(-c2ccccc2)cc1)CN(C)C (stereo unspecified)	-18	-7	-0.8	-10	7%
O=C(Nc1ccc2ccccc2c1)/C(=C\c1ccc2c(c1)OCO2)NC(=O)c1ccco1	-25	-3	-4.7	6	x
O=C(Nc1cc(C(F)(F)F)ccc1N1CCOCC1)c1ccccc1F	-13	-6	-1.7	4	x
COc1ccc(CCNC(=O)COC(=O)Cc2ccc(OC)cc2)cc1	-9	0	0.6	-1	2%
Cc1ccc2nc(-c3cc(N)cc(N)c3)oc2c1	-135	-3	-3.7	94	56%
Cc1cccc(C)c1N(CC(=O)N/N=C/c1cc(Br)c(C)o1)S(C)(=O)=O	-15	4	1.9	2	-1%
Cc1ccc(S(=O)(=O)CCN2CCN(c3ccccn3)CC2)cc1	x	x	-1.8	1	-4%
Cc1ccc(Nc2nc(-c3ccc(O)c(O)c3)cs2)nc1	x	-20	12	x	-2%
COc1ccc(CCNC(=O)CCC(=O)N2CCN(S(=O)(=O)c3ccccc3)CC2)cc1OC	-41	0	-0.4	8	-7%
COC(=O)c1cn(NC(=O)/C=C/c2cccc(OC)c2OC)c(=O)c2ccccc12	-40	-3	1.8	4	-4%
CC(C)Nc1ccc(Nc2ccnc3cc4ccccc4cc23)cc1	x	x	3.0	94	5.3µM*
CNC(=O)c1ccc(-c2cc(C(F)(F)F)nn2C)s1	x	x	1.6	5	-9%
O=C(CN1C(=O)c2ccccc2S1(=O)=O)NCc1ccccc1	x	x	-3.2	-1	x
O=C(NCC[C@@H]1C[C@@H]2C=C[C@H]1C2)c1cc(COc2ccc(F)cc2F)on1	x	x	7.8	11	x
Cc1ccc(CN2CCN(Cc3ccc(Oc4ncccn4)cc3)CC2CCO)cc1 (stereo unspecified)	x	0	2.7	-3	0%
FC(F)(F)c1ccc(Oc2ccccc2Cl)nc1	x	0	-2.2	-1	-2%
CC1CCCCN1S(=O)(=O)c1ccc2c(c1)C(C)(C)C(=O)N2C (stereo unspecified)	x	x	1.8	u	x
CC12CCC(C(=O)O)(c3nc4cc([N+](=O)[O-])ccc4nc31)C2(C)C (stereo unspecified)	x	x	-35	-2	-17%
CNC(=S)N/N=C/c1ccc(-c2ccc(C(=O)O)cc2)o1	x	x	-3.7	-9	1%
C[C@@H]1C=C[C@](Cc2ccccc2)(C(=O)NCCc2c[nH]c3ccccc23)N1C(=O)c1ccccc1	-15	-14	7.4	-4	-8%
COc1ccc(CNC(=O)c2sc(=S)n(-c3ccccc3)c2N)cc1	x	x	4.0	-2	-4%
Cc1cccc(NC(=O)C2C(C(=O)O)C3C=CC2C32CC2)c1C (stereo unspecified)	-33	4	1.3	9	x	Arbovirus inh repeat=4
O=C(CSc1ccc(Cl)cc1)NC1CCCc2ccccc21 (stereo unspecified)	-9	-5	0.0	-7	11%
O=C(Nc1ccc(C(=O)N2CCCCC2)cc1)c1ccc(Br)cc1	-34	-4	2.7	97	21%
O=C(CC1C(=O)NCCN1Cc1c(F)cccc1Cl)NCCC1=CCCCC1 (stereo unspecified)	x	0	-0.7	-9	-2%
NC(=O)/C(=C\c1ccncc1)c1cccc2ccccc12	x	x	-0.5	1	-3%
CCN(CC)c1ccc(/C=N/Nc2nc(C)cc(=O)[nH]2)cc1	9	-1	-6.6	36	x
COc1ccc(C(=O)Nc2cc(OC)c(Cl)cc2Cl)cc1	x	4	-1.6	5	0%
CC(=O)Nc1ccc(-n2c(C)ccc2C)cc1	x	-9	1.6	-2	5%

A draw from above in order of number of heavy atoms, smallest number first.
SMILES	YopH PTP inh	Arbovirus inh	RecA splice inh	Mtb betalactam	Mtb growth	others
CC(=O)Nc1ccc(-n2c(C)ccc2C)cc1	x	-9	1.6	-2	5%
FC(F)(F)c1ccc(Oc2ccccc2Cl)nc1	x	0	-2.2	-1	-2%
COc1ccc(C(=O)Nc2cc(OC)c(Cl)cc2Cl)cc1	x	4	-1.6	5	0%
CCN(CC)c1ccc(/C=N/Nc2nc(C)cc(=O)[nH]2)cc1	9	-1	-6.6	36	x
O=C(CN1C(=O)c2ccccc2S1(=O)=O)NCc1ccccc1	x	x	-3.2	-1	x
O=C(Nc1ccc(C(=O)N2CCCCC2)cc1)c1ccc(Br)cc1	-34	-4	2.7	97	21%
COc1ccc(CNC(=O)c2sc(=S)n(-c3ccccc3)c2N)cc1	x	x	4.0	-2	-4%
O=C(NCC[C@@H]1C[C@@H]2C=C[C@H]1C2)c1cc(COc2ccc(F)cc2F)on1	x	x	7.8	11	x
O=C(CC1C(=O)NCCN1Cc1c(F)cccc1Cl)NCCC1=CCCCC1 (stereo unspecified)	x	0	-0.7	-9	-2%
Cc1ccc(CN2CCN(Cc3ccc(Oc4ncccn4)cc3)CC2CCO)cc1 (stereo unspecified)	x	0	2.7	-3	0%
C[C@@H]1C=C[C@](Cc2ccccc2)(C(=O)NCCc2c[nH]c3ccccc23)N1C(=O)c1ccccc1	-15	-14	7.4	-4	-8%

Only part of the results is shown; rates above refer to the full screens.
